VACV Venus inh = vaccinia inhibition (Venus reporter); Vaccinia virus Venus reporter expression, fluorescence; Potency, µM (doses to about 36.5 µM), inactives show at the top dose activity change, negative = inhibition, most hits filed as inhibitors; 0.46% of 330,000 active; AID 720580; active means well fitted inhibition curve with a large enough effect; inconclusive means small, poorly fitted or top-dose-only effect; inactive means no such curve, though single readings can be large or run the other way; tested in A549 cells; also: nearly all actives have a fitted effect of over 30% in size; inactives centre near -10
Vaccinia mCherry = inhibitors of vaccinia virus infection (mCherry reporter signal). Vaccinia virus mCherry reporter infection, fluorescence; about a quarter of the inactives have no number. Potency, µM (doses to about 36.5 µM), without a hit: top-dose activity change, negative = inhibition, usual class: inhibitors. 0.63% of 310,000 active. AID 720579; active = well fitted inhibition curve with a large enough effect; inconclusive = small, poorly fitted or top-dose-only effect; inactive = no such curve, though single readings can be large or run the other way; tested in A549 cells; also: nearly all actives have a fitted effect of over 35% in size; inactives centre near -10
Numbers without * were called inactive; i = inactive; ? = inconclusive; · = not tested or not shown. % is scaled to controls: 0 for no effect and ±100 for the full control effect; potency is read from the fitted curve at half-maximal effect. Random draw from the library; 0.82% or so of the library scored in one or more.

Molecule | VACV Venus inh | Vaccinia mCherry
Fc1ccc(CCNC(=S)Nc2ccc(F)cc2)cc1 | -10% | -10%
Cc1ccc(/C=N\NC(=O)c2cc(OCC(F)(F)F)ccc2OCC(F)(F)F)cc1 | -4% | ·
O=C(CSc1cc(Cl)ccc1Cl)NCCN1C(=O)CSC1=O | -8% | -7%
COC(C(=O)N/N=C(\C)c1ccc(C(C)(C)C)cc1)c1ccccc1 (stereo unspecified) | -22% | -1%
Cc1c(Cl)ccc(S(=O)(=O)N2CCN(C)CC2)c1Cl | -19% | -15%
O=C(NCc1cccs1)c1ccccc1F | -17% | ·
CC(C)(C)c1nc(SCC(=O)NCc2cccs2)c2ccccc2n1 | -6% | i
C[N+](C)(C)CC#CCN1CCCC1=O | -18% | i
OCc1ccccc1-c1ccc2nccn2c1 | -12% | i
CSc1ccc(CN(C)CC(=O)NCc2ccccc2)cc1 | -15% | -4%
O=C(CN1CCN(c2ccccc2F)CC1)NC(=O)NCc1ccccc1 | -4% | i
COc1ccccc1-c1cc(C(F)(F)F)nc(S(=O)(=O)CCCC(=O)N2CCOCC2)n1 | ? | ?
CCOC(=O)c1sc2nc(CSc3ccccc3)[nH]c(=O)c2c1C | ? | -16%
O=C(CN1C(=O)c2ccc([N+](=O)[O-])cc2C1=O)NCc1ccco1 | -9% | -17%
C=CCn1cn[nH]c1=S | 2% | -4%
O=C1NCCN(Cc2ccoc2)C1CC(=O)N(Cc1ccccc1)CC1CCC1 (stereo unspecified) | -3% | -6%
CC(C)(C)n1nnnc1C(CCc1ccccc1)N1CCC2(CC1)C(=O)NCN2c1ccccc1 (stereo unspecified) | ? | -13%
O=C(c1ccc(CS(=O)Cc2ccccc2Cl)o1)N1CCN(c2ccccc2)CC1 (stereo unspecified) | -20% | -7%
Cc1ccc(NC(=O)Cn2nnc3sc(-c4ccccc4)cc3c2=O)cc1Cl | -4% | -16%
COc1ccc(C(=O)CSc2nc(C)cc(=O)[nH]2)cc1C | -16% | i
C#CCOc1ccc(/C=C2\SC(=S)N(Cc3cccnc3)C2=O)cc1 | 2% | -5%
CCOC(=O)Nc1ccc(C)cc1C | -9% | -11%
CCN(Cc1ccccc1)C(=O)CN1C(=O)NC2(CC(C)CC(C)(C)C2)C1=O (stereo unspecified) | -15% | -21%
O=C(c1ccc(F)cc1)c1cc2ccc(O)cc2oc1=O | -2% | -12%
COc1nc(N)nc(N2CCOCC2)n1 | -11% | -14%

Compounds listed so far with fluorine:
Molecule | VACV Venus inh | Vaccinia mCherry
Fc1ccc(CCNC(=S)Nc2ccc(F)cc2)cc1 | -10% | -10%
Cc1ccc(/C=N\NC(=O)c2cc(OCC(F)(F)F)ccc2OCC(F)(F)F)cc1 | -4% | ·
O=C(NCc1cccs1)c1ccccc1F | -17% | ·
O=C(CN1CCN(c2ccccc2F)CC1)NC(=O)NCc1ccccc1 | -4% | i
COc1ccccc1-c1cc(C(F)(F)F)nc(S(=O)(=O)CCCC(=O)N2CCOCC2)n1 | ? | ?
O=C(c1ccc(F)cc1)c1cc2ccc(O)cc2oc1=O | -2% | -12%

Continued:
Molecule | VACV Venus inh | Vaccinia mCherry
C[C@H]1CN(C2CCCCC2)C(=O)[C@@H]1CC(=O)Nc1ccc(Br)cc1 | -7% | -15%
COc1ccc(CNS(=O)(=O)c2ccc(C3CNC(=O)C3)cc2)cc1 (stereo unspecified) | -3% | 0%
COc1cccc(-c2cnc(C(O)c3cccc(C)c3C)[nH]2)c1 (stereo unspecified) | -6% | -2%
CC(=O)c1ccc(N2CCN(C(=O)/C=C/c3cccs3)CC2)cc1 | -6% | i
CCN(CC)CCn1c(=S)[nH]c2cc(C(=O)NCc3ccccc3)ccc2c1=O | -5% | -14%
CC(C)(C)c1ccc(-c2nc(NC(=O)CSc3ncnc4sc5c(c34)CCCC5)ns2)cc1 | -5% | -11%
Cn1[nH]c(-c2ccccc2)c(/C=N/O)c1=O | 2% | -8%
COc1ccc(NC(=O)c2ccccc2)cc1 | -5% | -24%
O=C(c1ccc(Cl)cc1Cl)N1CCOCC1 | 4% | i
CN1C2C=C3C(C#N)=C(N)C(C#N)(C#N)[C@@H](c4cccs4)C3C1CC2 (stereo partly specified) | -23% | ·
CCOC(=O)c1c(NC(=O)c2ccnn2C)sc(C)c1C | -3% | ·
NC(=O)c1c(NC(=O)c2ccc(S(=O)(=O)N3CCOCC3)cc2)sc2c1CCCCC2 | -5% | i
O=C1c2ccccc2C(=O)c2c1cccc2N1CCN(C/C=C/c2ccccc2)CC1 | -1% | -27%
CCn1ccnc1CN1CCCC(C(=O)c2ccc3cc(OC)ccc3c2)C1 (stereo unspecified) | -12% | -24%
O=C(CSc1nnc(C2CCCCC2)o1)N1CCCCC1 | -8% | i
COc1ccc(CN(C)CC(=O)Nc2cc3oc4ccccc4c3cc2OC)c(OC)c1 | -28% | -13%
Fc1ccccc1-c1nc(-c2cnccc2C(F)(F)F)no1 | -23% | -5%
CCCC(=O)N1CCN(c2ccc(NC(=O)c3cc4ccccc4o3)cc2Cl)CC1 | 10µM* | ·
CCOc1ccc(-c2nnc(-c3ccccc3)o2)cc1 | -15% | ·
O=[N+]([O-])c1ccc(CSc2ncnc3c2ncn3C2OC(CO)C(O)C2O)cc1 (stereo unspecified) | -14% | -19%
CCOC(=O)C1CCN(S(=O)(=O)NC[C@H]2O[C@@H](n3cnc4c(N)ncnc43)[C@H](O)[C@@H]2O)C1 (stereo partly specified) | -8% | -7%
Cc1ccc(C(c2cc(Br)ccc2O)N2CCSCC2)cc1 (stereo unspecified) | -5% | i
CCOc1ccc(S(=O)(=O)Nc2cccc(N(C)S(C)(=O)=O)c2)cc1 | ? | ·
COc1ccc(Nc2cc(C)nc(N)n2)cc1 | -23% | -15%
Cc1ccc(S(=O)(=O)N2CCN(c3ccc([N+](=O)[O-])cn3)CC2)cc1 | -8% | i

Molecule | VACV Venus inh | Vaccinia mCherry
CN(c1ccccc1)S(=O)(=O)c1cccc(NC(=O)CCNC(=O)c2ccc([N+](=O)[O-])cc2)c1 | -16% | -10%
Cc1ccc(C(=O)N2CCN(Cc3ccc4c(c3)OCO4)CC2)c(Cl)c1 | -9% | -6%
O=C(Nc1ccc2c(c1)nc1n2CCN(Cc2ccccc2)C1)NC1CCCCC1 | -3% | -3%
O=C(C=Cc1ccccc1Cl)c1ccccc1 | -4% | -8%
COCCOC(=O)C1=C(C)N=C2SCCC(=O)N2C1c1ccc(C(=O)OC)cc1 (stereo unspecified) | -3% | -9%
O=C(Cn1cnc2ccccc2c1=O)NCCC(=O)N1CCC2(CC1)OCCO2 | -9% | i
Cn1c(CN2CCOCC2)nc2cc(NC(=O)COc3ccc([N+](=O)[O-])cc3)ccc21 | -23% | -9%
C/C=C1\COC(C(=O)NCc2cccc(OC)c2OC)(C(F)(F)F)C=C1C=C1CCCCC1 (stereo unspecified) | -14% | -3%
O=C(O)CCC(=O)N1CCc2cc(S(=O)(=O)Nc3ccc4c(c3)OCCO4)ccc21 | 3% | -7%
CC(C)CCn1c(Oc2ccccc2Cl)nc2c1c(=O)n(C)c(=O)n2C | -12% | -20%
O=[N+]([O-])c1cccc(S(=O)(=O)NCc2ccncc2)c1 | -26% | ?
CC(C)c1onc(C(=O)NC2CCCC2)c1[N+](=O)[O-] | -4% | i
C[C@@H]1CC=C[C@H]2[C@H]1C(=O)N(Cc1ccccc1)[C@H]2c1ccc(Br)cc1F | -19% | -6%
O=C(N[C@H]1/C=C\[C@@H](O)CCCC1)OCc1ccccc1 | -20% | i
O=C(Nc1ccc2c(c1)N(S(=O)(=O)c1cccs1)CCC2)c1c(F)cccc1Cl | -24% | -10%
Cc1cccc(NC(=O)C2CCCN(S(=O)(=O)c3c(C)nn(C)c3C)C2)n1 (stereo unspecified) | -4% | 7%
CN(c1ccc(C(=O)NCCSC(C)(C)C)cc1)S(=O)(=O)c1ccccc1 | -17% | i
Nn1c(SCC(=O)NC(=O)NCc2ccccc2)nnc1C1CC1 | -6% | -10%
Cc1ccc2c(c1)c(N=NC(N)=O)c(O)n2C | 0% | -5%
CCc1ccccc1NC(=O)c1ccc(F)c(S(=O)(=O)NC2CCCCCC2)c1 | -9% | -15%
C#CCNC(=O)C[C@@H]1C[C@@]2(C(=O)OC)CC(C)(C)CC=C2N(Cc2ccccc2)C1=O | -18% | ?
CC1(C)NC(=O)N(CC(O)Cn2nnc3ccccc32)C1=O (stereo unspecified) | -6% | ·
COCCNc1nc2ccccc2n1CC(=O)c1ccc(OC)c(OC)c1 | -12% | 1%
COc1ccccc1C(=O)NCCCNC(=O)c1cccnc1 | 8% | -4%
CC(=O)Nc1cccc(-c2csc(C(O)c3cccc(Cl)c3)n2)c1 (stereo unspecified) | ? | ?

Molecule | VACV Venus inh | Vaccinia mCherry
CN1CCCN(C(c2ccccc2)c2ccc(Cl)cc2)CC1 (stereo unspecified) | ? | ?
CCC(C)Nc1nc2c(c(=O)[nH]c(=O)n2C)n1CCC(C)C (stereo unspecified) | -13% | ·
Cc1ccc(-c2n[nH]c(=S)n2/N=C\c2ccco2)cc1 | -10% | -11%
CCc1nc2ccc(C(=O)O)cc2nc1CC | -3% | -13%
CCN(CC)C(=O)C1=C(C)N(CCCOC)C(=O)C(CC(=O)NC2CCCCC2)C1 (stereo unspecified) | -7% | -1%
Cc1cccc(C(=O)Nc2cccc(C(=O)N/N=C/c3cccc(C)n3)c2)c1 | -8% | -13%
COc1ccc(CCNC(=O)CSc2nc(N)c(C#N)c(-c3cccs3)c2C#N)cc1OC | -16% | -20%
CCNC(=O)C1CCCN(C(=O)c2cccc(Cl)c2)CC1 (stereo unspecified) | 5% | i
Cc1ccc(C)c(S(=O)(=O)N2CCCC2CNC(=O)C(=O)NCCc2ccco2)c1 (stereo unspecified) | -21% | -26%
Cc1ccc(C(=O)Nc2cccc(N(C)S(C)(=O)=O)c2)cc1S(=O)(=O)Nc1ccccc1 | -21% | i
CCCCCCNC(=O)C(C#N)c1nc2ccccc2nc1N1CCOCC1 (stereo unspecified) | -19% | ·
N#Cc1c(NC(=O)C2CC(Cl)=CCC2C(=O)O)sc2c1CCCC2 (stereo unspecified) | -9% | i
c1ccc(-c2csc3ncnc(N4CCOCC4)c23)cc1 | -9% | i
Cc1ccccc1OCCCC(=O)Nc1nccs1 | -22% | -23%
CC(C)(C)c1ccc(C(=O)NCCc2csc3nc(-c4ccccc4F)nn23)cc1 | -11% | -28%
CC(C)[C@H](NC(=O)[C@@H]1Cc2ccccc2CN1C(=O)OC(C)(C)C)C(=O)NCc1ccco1 | -17% | -14%
CCOC(=O)C1(C)C=C(Nc2ccc(OC)cc2)C(=O)N1c1ccccc1 (stereo unspecified) | -7% | -10%
Cc1csc(=O)n1CC(=O)OCC(=O)Nc1ccc(F)c(F)c1F | -9% | i
CCC(C(=O)OCc1cc(=O)n2nc(C)sc2n1)c1ccccc1 (stereo unspecified) | -3% | -2%
CCOc1ccc(/C=C2\SC(=S)N(CCC(=O)Nc3cccc(C(=O)O)c3)C2=O)cc1 | 2% | -21%
O=C1c2ccccc2C(c2nnnn2-c2ccc3c(c2)OCCO3)N1CCc1ccc(O)cc1 (stereo unspecified) | -8% | -6%
Nc1nc(SCC(=O)c2c(N)n(Cc3ccccc3)c(=O)[nH]c2=O)n[nH]1 | -12% | -10%
Cc1cccn2c(=O)c(C=O)c(Sc3ncccn3)nc12 | -13% | -25%
CCN(CCNC(=O)C1CCN(S(=O)(=O)CC)CC1)c1ccccc1 | -9% | i
CC12C(=O)N(c3cccc4cccnc34)C(=O)C1C1C=CC2C1 (stereo unspecified) | 3% | -4%

Molecule | VACV Venus inh | Vaccinia mCherry
O=C(CSc1nnc(-c2ccncc2)o1)N1CCc2ccccc2C1 | -3% | -17%
Cc1cccc(NC(=S)NCc2ccccc2)c1C | -5% | -10%
O=C(NC1CC1)C1CCC(=O)N1C1CCCC1 (stereo unspecified) | -10% | -2%
COc1cccc(-n2c(Cn3nc(C(F)F)cc3C(F)F)n[nH]c2=S)c1 | -13% | -4%
Cc1cccc(NC(=O)c2cnn(-c3ccccc3)c2C)c1C | -16% | -4%
CC(=O)c1ccc(OC(=O)N2CCOCC2)cc1 | -12% | -12%
Nc1ccc(Oc2ccccc2-c2ccccc2)cc1 | -19% | -23%
CCC[C@H]1CC(=O)C=C(c2ccc(OC)cc2)ON1C(=O)OC(C)(C)C | -9% | -1%
Cc1cc(/C=N/NC(=O)c2ccc(O)cc2)c(C)n1C1CC1 | -12% | 1%
O=C(NNC(=O)c1ccccc1O)c1ccc(Cl)c(S(=O)(=O)N2CCCCC2)c1 | -10% | ?
CCCNS(=O)(=O)c1ccc(CCC(=O)N2CCCC2)cc1 | -15% | -12%
COc1ccc(N2CCN(c3cc(C(=O)Nc4cc(OC)c(OC)c(OC)c4)ncn3)CC2)cc1OC | -7% | -18%
COc1cccc(CNC(=O)CN2C(=O)CCc3cc(S(=O)(=O)N4CCOCC4)ccc32)c1 | -7% | -2%

Bioassay records (PubChem BioAssay)
